# HIV TAR-Tat: HIV-1 TAR-Tat binding disruption. HIV-1 TAR RNA, Tat peptide displacement FRET; active compounds read high. z-score (concentration not given with the values). 0.6% of 100,000 active. AID 1259389;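 note: score is relative to mean and SD of negative controls; some compounds called inactive have numbers as strong as hits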
# CDC25B-CDK2 inh: human CDC25B-CDK2/CyclinA binding inhibition; P30305+P24941; HTRF CDC25B-CDK2/CyclinA binding, anti-His/anti-Flag; active compounds read high; z-score (concentration not given with the values); 0.72% of 94,000 active;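 note: score is relative to mean and SD of negative controls; strong numbers were not always called active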
# Starred values were filed as active, the others as inactive; · = no result given; & = joins results of further samples.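 Rule for the calls: active = z-score from 3 up in half or more of its runs; inactive = the rest.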
canonical_smiles,HIV TAR-Tat,CDC25B-CDK2 inh
CC(C)CCNC(=O)C1(C)CCC(=O)N1CCc1cccs1 (stereo not drawn),0.96,0.16
O=C(Nc1nc(-c2ccc(Br)o2)ns1)c1cccc(Cl)c1,-1.2,-0.2
CCc1cc2c3c([nH]c2cc1S(=O)(=O)NC(C)CC)CCCC3=O (stereo not drawn),2.1,·
O=C(CCc1nc(-c2ccc(Cl)cc2)no1)N1CCCC1,0.93,-0.88
COc1ccc(S(=O)(=O)N(CCC#N)CCC#N)cc1OC,·,-0.64
O=S1(=O)C[C@H](NCCc2cccs2)[C@@H](S(=O)(=O)c2cccs2)C1,-0.83,-1.9
CCC(=O)Nc1nnc(SCc2cc(=O)n3nc(CC)sc3n2)s1,0.2,·
OC(CNc1ccccc1Cl)Cn1nnnc1-c1ccccc1 (stereo not drawn),1.3,-0.69
Cc1ccc(CSc2nc(C)c3c(n2)CCCC3)cc1,·,-2.6
COc1cccc(Nc2ncnc3c2cnn3-c2ccc(F)cc2)c1,1.6,·

# Four entries already listed, ordered by molar mass, largest number first:
canonical_smiles,HIV TAR-Tat,CDC25B-CDK2 inh
O=S1(=O)C[C@H](NCCc2cccs2)[C@@H](S(=O)(=O)c2cccs2)C1,-0.83,-1.9
O=C(Nc1nc(-c2ccc(Br)o2)ns1)c1cccc(Cl)c1,-1.2,-0.2
COc1cccc(Nc2ncnc3c2cnn3-c2ccc(F)cc2)c1,1.6,·
CC(C)CCNC(=O)C1(C)CCC(=O)N1CCc1cccs1 (stereo not drawn),0.96,0.16

# The list goes on.
canonical_smiles,HIV TAR-Tat,CDC25B-CDK2 inh
C1CCN2C[C@@H]3C[C@H](CN4CCCC[C@@H]34)[C@H]2C1,0.77,·
Clc1ccc(-c2nc(-c3[nH]ncc3Br)no2)cc1,·,-1.5
Nc1nc(SC2c3ccccc3-c3ccccc32)n[nH]1,·,0.53
Cc1ccc(N2CC(C(=O)Nc3nnc4n3CCCS4)CC2=O)cc1C (stereo not drawn),-0.41,·
COc1ccc2[nH]c(=O)c3c(c2c1)OC(C)(C)C=C3,1,·
CN1CCN(c2cccc(Nc3ncnc4onc(-c5ccc(Cl)cc5)c34)c2)CC1,-1.2,-1.3
CC(C)Cc1ccc(S(=O)(=O)Nc2ncn(Cc3ccc(Cl)cc3)n2)cc1,1.6,0.71
Cc1nc(-c2ccc(S(=O)(=O)Nc3ccc(Cl)cc3F)cc2)co1,0.9,·
CC(=O)N1c2ccccc2NC2=C(C(=O)CC(C)(C)C2)C1c1ccco1 (stereo not drawn),2.1,·
O=C(Nc1cccc(Cl)c1)N1CCSc2ccccc21,0.98,·

# Record cards (already shown). Screens in order: HIV TAR-Tat, CDC25B-CDK2 inh
# Results for Nc1nc(SC2c3ccccc3-c3ccccc32)n[nH]1 = ·, 0.53
# Results for C1CCN2C[C@@H]3C[C@H](CN4CCCC[C@@H]34)[C@H]2C1 = 0.77, ·

# The results go on:
canonical_smiles,HIV TAR-Tat,CDC25B-CDK2 inh
C=CCn1c(SCC)nc2c(c1=O)C1(CCCC1)Cc1ccccc1-2,-0.8,-0.99
Cc1cc(C)cc(OCc2nc(-c3ccccc3)no2)c1,·,-2.3
CN1C(=O)C(O)(CC(=O)c2ccc(C(C)(C)C)cc2)c2ccccc21 (stereo not drawn),1.2,-1.2
O=C(Nc1ccc2c(c1)OCCO2)c1nc(-n2cnnc2)ccc1Br,3.6,·
Cc1cc(C)c2cc(C(=O)Nc3ccc4c(c3)OCO4)[nH]c2c1,·,-1.9
O=S(=O)(CCS(=O)(=O)Cc1ccc(Cl)cc1)CCS(=O)(=O)Cc1ccc(Cl)cc1,·,-1.7
COC(=O)c1ccc(C2Sc3ccccc3NC3=C2C(=O)c2ccccc23)cc1 (stereo not drawn),-3.5,-2.2
CCOC(=O)c1cc(-c2cccs2)no1,3.4,-2
CC1COC(c2cccc([N+](=O)[O-])c2)N1 (stereo not drawn),·,0.03
CC1CCc2nn(CC(=O)NC3CCCCCC3)cc2C1 (stereo not drawn),·,-2.6
Cc1noc(C)c1S(=O)(=O)Nc1ccc2c(c1)OCO2,0.6,-3.5
Cc1ccc(C)c(NC2=NC3(CCCC3)N=C(N)N2)c1,·,-0.48
CCN1C(=S)NC2c3cc(C)ccc3OC13CCCC23 (stereo not drawn),·,-2
COc1ccc(N2C(=O)CSC2c2cc(Br)ccc2OC)cc1 (stereo not drawn),·,-0.41
Cc1ccc(C)c(Oc2coc3cc(O)ccc3c2=O)c1,-1.1,-0.13
CCOC(=O)c1cn[nH]c1S(=O)(=O)Nc1ccc(OC)cc1OC,-0.32,·
CCOC(=O)c1c(C)nn(-c2ncccc2NC(=O)Nc2cccc(Cl)c2Cl)c1C,·,-0.91
CC(C)CC(=O)Nc1onc2c1CCCC2,2.5,-1.4
N#Cc1nc(-c2ccc(F)cc2)oc1N1CCOCC1,-0.1,-0.55
COc1cccc(NS(=O)(=O)c2ccc3c(c2)C(C)(C)C(=O)N3)c1,1.1,·
CCC(C)NC(=O)CC(C)S(=O)(=O)c1ccc2c(c1)CCN2C(C)=O (stereo not drawn),1.4,·
Cc1ccccc1OC(=O)CSc1nc(-c2ccccc2)nc2cc(=O)[nH]n12,0.06,·
O=C(O)CN1C(=O)c2ccc(C(=O)c3ccc4c(c3)C(=O)N(CC(=O)O)C4=O)cc2C1=O,·,-1.2
COc1cccc2c1Oc1[nH]c(-c3ccccc3F)nc(=S)c1C2,-0.18,-0.72
Cn1cc(C2CC(=O)N(c3cccc(O)c3)C2=O)c2ccccc21 (stereo not drawn),0.95,-2.2
COc1ccc(NS(=O)(=O)c2ccc3c(c2)NC(=O)CCS3)c(OC)c1,2.5,·
CCOC(=O)c1c(NC(=O)C2CC(=O)OC23CCCCC3)sc2c1CC(C)(C)OC2 (stereo not drawn),·,-1.3
COC(=O)c1cc2c(cc1NC(=O)c1cc3c(s1)-c1ccccc1S(=O)(=O)C3)OCO2,-0.57,-0.45
COc1ccc(/C=N/Nc2ncnc3scc(C)c23)cc1,·,-1.4
CN(C)c1ccc(C(CNS(C)(=O)=O)N2CCCC2)cc1 (stereo not drawn),-0.43,·
COc1ccc(S(=O)(=O)Nc2c(-n3cnnc3)nn(C)c2C)cc1OC,0.77,-1.7
O=C1COc2ccc(S(=O)(=O)N3CCC(C(=O)NC4CCCCC4)CC3)cc2N1,1.5,·
COCCOC(=O)c1c(C)oc2ccc(OCc3cc(C(=O)OC)oc3C)cc12,0.41,0.12
Cc1ccc(S(=O)(=O)Nc2cccc(-c3ccc(S(C)(=O)=O)nn3)c2)cc1,-0.06,·
COc1ccc(-c2cn(-c3cccc(Cl)c3)c(=S)[nH]2)cc1,·,-0.63
Cc1[nH]c2ccccc2c1C(Nc1ccccn1)c1ccccc1F (stereo not drawn),·,-0.96
COc1ccc(Cl)cc1Nc1nc(-c2sc(C)nc2C)cs1,-0.3,-2.4
Cc1cccc(CS(=O)(=O)c2ccc3c(c2)S(=O)(=O)N=CN3)c1,0.53,·
CC(CC(=O)Nc1ccc(Cl)cc1F)S(=O)(=O)c1ccc2c(c1)CCN2C(=O)C1CC1 (stereo not drawn),-0.4,·
COC(=O)CSC1=C(C#N)C(=O)NC2(CCCCC2)S1,·,-1.4
O=C(NCc1ccco1)C1CCN(S(=O)(=O)c2ccc3[nH]c4c(c3c2)CCCCC4)CC1,0.1,·
CCOc1ccccc1-n1nnc(-c2nc(-c3ccccc3)no2)c1N,0.19,·
CC(=O)OC1(C#CI)C2CC3CC(C2)CC1C3 (stereo not drawn),·,0.19
O=C(CCCn1c2ccccc2c2cn[nH]c(=O)c21)NCc1cccs1,1.9,-0.54
CN(CCCc1ccco1)S(=O)(=O)c1ccc(-c2ccc(=O)[nH]n2)s1,-0.69,·
CC1=C(C(=O)Nc2ccccc2)C(c2ccccn2)n2ncnc2N1 (stereo not drawn),2.4,·
O=C(CSc1nc2ccccc2c(=O)[nH]1)c1ccc(O)c(O)c1,·,-3.4
COC(=O)c1cnc(Sc2nnc(C(F)(F)F)n2C)c([N+](=O)[O-])c1,·,-0.94
C=CCSC1=C(C#N)C(c2cccs2)C(C(=O)OCC)=C(c2ccccc2)N1 (stereo not drawn),1.4,-0.01
COc1ccc(OCC(=O)n2c(=O)oc3cc(Br)ccc32)cc1,-1.5,·

# (more compounds)
canonical_smiles,HIV TAR-Tat,CDC25B-CDK2 inh
COc1ccc(C2C=C(c3ccc(Cl)cc3)Nc3ncnn32)cc1OC (stereo not drawn),-3.5,·
CC(=O)N[C@@H](CS)C(=O)O,2&0.97,0.89
CC(C)c1nnc2n1N=C(c1ccc(Br)cc1)CS2,-0.93,-1.3
CCC(CC)C(=O)Nc1nnc(COC)s1,-1.5,-1.3
CCCN1CCN(C(=O)C(CC)n2nc(C)c3sc4ccccc4c3c2=O)CC1 (stereo not drawn),2,-2.5
CCN(Cc1nc(-c2cccc(C)c2)no1)S(=O)(=O)c1ccccc1,2.1,1.4
CCOc1ccc(N2C(=O)CC(NCc3ccco3)C2=O)cc1 (stereo not drawn),1.8,-1.5
O=C(NCCCN1CCN(c2ccc(F)cc2)CC1)Nc1ccc(F)cc1,0.66,-0.92
CCOC(=O)c1c(NC(=O)C2CC(Cl)=CCC2C(=O)O)sc(C)c1C (stereo not drawn),0.59,-0.44
COC(=O)c1c(NC(=O)c2cc(=O)c3cc(C)c(C)cc3o2)sc2c1CCC2,1.9,-2.2

# Gathered by group, the compounds so far with a nitro group on carbon.
canonical_smiles,HIV TAR-Tat,CDC25B-CDK2 inh
CC1COC(c2cccc([N+](=O)[O-])c2)N1 (stereo not drawn),·,0.03
COC(=O)c1cnc(Sc2nnc(C(F)(F)F)n2C)c([N+](=O)[O-])c1,·,-0.94

# Carrying on:
canonical_smiles,HIV TAR-Tat,CDC25B-CDK2 inh
O=c1cc(-c2ccccc2)nc2nc(SCc3ccccc3)[nH]n12,-3.1,-1.7
Cc1cc2nc(SCCN3CCCC3)[nH]c2cc1C,0.29,-1.4
N#Cc1cc(NC(=O)c2ccc(Cl)cc2)c(=O)n2c1sc1ccccc12,-1.3,0.46
N#C/C(=N\Nc1ccc(C(F)(F)F)cc1)S(=O)(=O)c1cccs1,·,-0.8
O=C1NC(c2cccc([N+](=O)[O-])c2)=CCN1c1ccccc1O,·,-1.2
COc1ccc(C(=O)Oc2cc(-c3ccc(OC)c(OC)c3)cc(=O)c3c(C)oc(C)c23)cc1,-1.1,-2.2
CCOC(=O)C1=C(C)NC(SC)=NC1c1ccc(OC)cc1 (stereo not drawn),0.97,-0.74
Cc1ccc2nc(-c3cc(N)ccc3Cl)oc2c1,0.07,-1.4
Cn1c(C(=O)N2CCC(C(=O)N3CCN(C(=O)c4ccco4)CC3)CC2)cc2sccc21,0.82,2.4
Cc1ccc(-c2n[nH]c(=O)c3c2CCCC3)cc1S(=O)(=O)N(Cc1ccco1)CC1CCCO1 (stereo not drawn),-0.92,-0.83
CCc1nonc1NC(=O)c1oc2cc(C)c(Cl)cc2c1C,0.17,-0.62
COC(=O)c1scc(C)c1-n1cccc1,·,-0.98
CSC1=NCCN1S(=O)(=O)c1ccc(C)cc1,-0.51,-0.5
Cc1nc2nc(NC(=O)CC(C)C)[nH]n2c(=O)c1C,0.8,-1.6
CC(C)(S)[C@H](N)C(=O)O,1.4,·
COc1ccc(-c2nc(CSCc3csc(C)c3)c(C)o2)cc1OC,1.3,·
Cc1cc(Nc2ccc(N3CCOCC3)c(Cl)c2)n2nc(-c3ccco3)nc2n1,1.7,-0.37
CCc1nccn1S(=O)(=O)c1cc(Cl)ccc1OC,0.6,-0.34
COCCCN(Cc1ccco1)C(=O)c1sc2nc3n(c(=O)c2c1C)CCCC3,0.95,·
O=C(CSc1nc2c(c(C(F)(F)F)n1)CCc1ccccc1-2)Nc1cccnc1,0.34,-0.8
Cc1cccc(CCNc2nnc3c4ccccc4n(C)c3n2)c1,1.3,-1.1
CCN1C(=O)C2(/C(=C(/O)c3ccc(C)cc3)C(=O)C(=O)N2CCCOC)c2ccccc21 (stereo not drawn),1.1,-1.1
COc1ccc(OC)c(C2=NS(=O)(=O)N(C)C(C(=O)N3CCCC3)=C2)c1,1.1,-3.1
O=C(O)C1CCC(=O)N(C2CCCCC2)C1c1ccccc1Cl (stereo not drawn),·,1.5
COc1cc(NS(=O)(=O)c2c(C)nc3sc(C)c(C)n3c2=O)cc(OC)c1,1,·
CCC(C)N=C1NS(=O)(=O)C(c2ccc(C(C)C)cc2)=C1C (stereo not drawn),1.1,-3.1
Cc1ccc(C(=O)NCCc2c(C)noc2C)cc1NC(=O)C1=CSCCO1,2.2,·
O=C(NCC1CCCO1)c1ccc(Nc2nc3ccccc3n3nnnc23)cc1 (stereo not drawn),-0.61,-0.09
COc1ccc(OC)c(S(=O)(=O)Nc2ccc(Cl)c(N3CCCS3(=O)=O)c2)c1,0.21,·
CC1=NN(c2ncnc3sc4c(c23)CCCC4)C(=O)C1,·,0.04
CCCCc1cc(=O)oc2c(C)c(OCC(=O)OCC)ccc12,·,0.83
CCOc1ccc(NC(=O)Nc2nc3ccc(S(C)(=O)=O)cc3s2)cc1,0.34,-2.1
Cc1ccc(-c2noc(-c3ccc(Cl)cc3)n2)s1,1.8,·
CC1CCN(c2ccc(NS(=O)(=O)c3cn(C)cn3)cc2)CC1,0.81,·
Cc1ccccc1Oc1ncnc2c1oc1ccccc12,-1.8,·
COC(=O)c1c(SCc2cccc(C)c2)[nH]c2ccccc2c1=O,1.2,·
CCOC(=O)c1cnn(C(=O)c2snnc2C)c1N,·,-2.6
CCc1ccc(S(=O)(=O)c2nnn(-c3ccc(Br)cc3)c2N)cc1,0.66,-1.1

# High-throughput results: PubChem BioAssay, Center for Chemical Genomics, University of Michigan
